From PubChem
DUX4 txn inh – DUX4-mediated transcription inhibition; 37,000 compounds, 0.8% hits; activity change, negative = inhibition, % (no concentration beside the values); 293T-iDUX4 ZSCAN4-Gaussia luciferase reporter, 24 h; hits give low values;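 active = -10% or lower and over 25 points stronger than a control reporter; inconclusive = -10% or lower with a smaller gap; inactive = above -10%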;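 also: 0% = median of neutral control wells and -100% = median of positive control wells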
DUX4 txn inh difference – recorded beside DUX4 txn inh, whose call it bears; Gaussia minus Italica difference, %; measured here: selective DUX4 reporter inhibition;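 worked out from the two reporters; negative = selective loss of the DUX4 reporter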
DUX4 txn inh control – recorded beside DUX4 txn inh, whose call it bears; activity change, negative = inhibition, %; measured here: Italica tet-on control reporter;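 0 = neutral control and -100 = positive control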
The depositor's hits bear a star; ? = inconclusive; · = not tested or not shown.

SMILES	DUX4 txn inh	DUX4 txn inh difference	DUX4 txn inh control
CCCNC(=O)[C@H]1[C@H](CO)[C@H]2Cn3c(cccc3=O)[C@@H]1N2C(=O)C1CCC1	2	5	-3.6
CCCNC(=O)N1C[C@H](O)COC[C@@H]2O[C@H](CC(=O)NCc3ccc(Cl)c(Cl)c3)CC[C@H]21	0	3	-2.2
CN1CCN(C(=O)C[C@H]2CC[C@@H]3[C@H](COC[C@H](O)CN3C(=O)C3CCCC3)O2)CC1	7	-1	7.2
N#C[C@@H]1[C@@H](c2ccc(C#Cc3ccccc3F)cc2)[C@H](CO)N1C(=O)C1CCC1	1	0	1.3
C[C@@H]1CN([C@@H](C)CO)C(=O)Cc2cc(NC(=O)c3ccncc3)ccc2O[C@@H]1CN(C)C(=O)Nc1ccc(F)cc1	-1	1	-1.3
C[C@@H]1CN([C@H](C)CO)C(=O)CCCn2cc(nn2)CO[C@H]1CN(C)S(=O)(=O)c1ccccc1C#N	8	10	-2.3
Cc1ccc(-c2ccccc2[C@H]2[C@@H](CO)N(C(=O)NC3CCCC3)[C@H]2C#N)cc1	?	·	·
CN(C)C(=O)c1ccc(-c2ccc([C@H]3[C@@H](C#N)N[C@@H]3CO)cc2)cc1	-1	0	-1.6
Fc1ccc(-c2ccc(C3[C@@H]4CN(Cc5ccccc5)C[C@H]3N4)cc2)cc1 (stereo partly drawn)	?	·	·
CN1C(=O)c2cc(NS(=O)(=O)c3ccc(F)cc3)ccc2OC[C@@H]2O[C@@H](CC(=O)NCC(F)(F)F)CC[C@@H]21	0	0	0.1
O=S(=O)(NCC[C@H]1CC[C@H](NS(=O)(=O)c2cccc(Cl)c2)[C@@H](CO)O1)c1cccc(F)c1	-7	-5	-1.7
O=C(C[C@@H]1C[C@H]2c3cc(NS(=O)(=O)c4ccc(F)cc4)ccc3O[C@H]2[C@@H](CO)O1)NCc1ccccn1	4	5	-1.0
CCCC#Cc1ccc([C@H]2[C@@H](CO)N3C(=O)CN(C(=O)Nc4cc(F)ccc4F)C[C@H]23)cc1	5	12	-7.0
O=C(C[C@H]1CC[C@@H]2[C@H](COC[C@H](O)CN2Cc2ccc(F)cc2)O1)NCc1ccncn1	-5	3	-7.4
Cc1cccc(S(=O)(=O)N2CC[C@@H]3[C@@H](CO)N(C)c4ccc(-c5ccc(C#N)cc5)cc4[C@@H]32)c1	?	·	·
C[C@H](CO)N1C[C@H](C)[C@@H](CN(C)Cc2ccc(C(F)(F)F)cc2)Oc2ccc(NS(C)(=O)=O)cc2CC1=O	2	1	0.6
C/C=C/c1ccc(C2[C@@H]3CN(Cc4cccc(OC)c4)C[C@H]2N3)cc1 (stereo partly drawn)	-5	-5	-0.3
COc1ccc2c3c([nH]c2c1)[C@@H](CO)N(Cc1nccs1)CC31CN(C(=O)C2CCCC2)C1	0	-5	5.4
C[C@H]1CCCCO[C@@H](CN(C)S(=O)(=O)c2cccs2)[C@@H](C)CN([C@@H](C)CO)C(=O)c2cc(N(C)C)ccc2O1	-4	-1	-2.2
CC(C)NC(=O)Nc1ccc2c(c1)C(=O)N(C)[C@@H]1CC[C@@H](CC(=O)NCC(F)(F)F)O[C@@H]1CO2	5	7	-2.5
CN1C(=O)c2cc(NC(=O)NCc3ccccc3)ccc2OC[C@@H]2O[C@H](CC(=O)NCC3CCCCC3)CC[C@H]21	-3	-3	0.6
O=C(c1ccncc1)N1C[C@@H]2[C@H](c3ccccc31)[C@@H](CO)N2C(=O)CN1CCOCC1	8	6	2.3
COCCNC(=O)c1cc2c(c(-c3cccc(-c4ccc(C#N)cc4)c3)n1)[C@H](CCO)N(C(=O)CC1CC1)C2	-1	1	-2.1
O=C(c1ccccn1)N1CC2(C1)[C@H](c1ccccc1)[C@@H](CO)N2C(=O)C1CCC1	5	4	1.3
C/C=C/c1ccc2c(c1)O[C@@H](CN(C)Cc1ccccc1F)[C@H](C)CN([C@H](C)CO)S2(=O)=O	-3	-2	-1.0
C[C@@H]1CN([C@H](C)CO)C(=O)c2cc(Br)cnc2O[C@@H]1CN(C)C(=O)c1cccc(F)c1	5	0	4.3
O=C(Nc1ccc(F)cc1)N1CC(=O)N2[C@H](CO)[C@H](c3ccc(-c4cccc(F)c4)cc3)[C@H]2C1	-5	8	-12
COc1ccc2c3c([nH]c2c1)[C@H](CO)N(C(=O)C1CCCCC1)CC31CCN(C)CC1	-3	-14	11
CCS(=O)(=O)N1CC(=O)N2[C@H](CO)[C@@H](c3ccc(C#Cc4cccc(F)c4)cc3)[C@H]2C1	-7	-22	15
CC(C)OC(=O)N(C)C[C@@H]1OCc2ccccc2-c2ccccc2C(=O)N([C@@H](C)CO)C[C@@H]1C	3	6	-2.9
CCCNC(=O)N1[C@@H](C#N)[C@@H](c2ccc(-c3ccc(C(=O)N(C)C)cc3)cc2)[C@@H]1CO	-1	-2	1.2
Cc1cccc(S(=O)(=O)N[C@H]2CC[C@@H](CCn3cc(-c4ccccn4)nn3)O[C@@H]2CO)c1	-1	0	-1.6
COc1ccc2c3c(n(C)c2c1)[C@H](CO)N(C(=O)CN1CCOCC1)CC31CCN(C(C)=O)CC1	12	-7	19
CCC(=O)N1[C@H](CO)[C@H](c2ccccc2)C12CN(Cc1nccs1)C2	-1	-6	5.3
OC[C@H]1[C@@H](c2ccccc2)[C@@H](CNCC2CCC2)N1CC1CC1	0	0	-0.3
CO[C@H]1CN(C)C(=O)c2ccc(NC(=O)NC(C)C)cc2OC[C@H](C)N(Cc2ccc(-c3ccccn3)cc2)C[C@H]1C	?	·	·
CO[C@@H]1CN(C)C(=O)c2cc(NC(=O)CC(F)(F)F)ccc2OC[C@H](C)N(S(=O)(=O)c2cn(C)cn2)C[C@H]1C	8	5	2.5
C[C@@H]1CN([C@@H](C)CO)C(=O)CCCn2nncc2CO[C@@H]1CN(C)Cc1ccccc1C(=O)O	0	1	-0.6
O=C(Nc1ccc(F)cc1)N1C[C@@H]2[C@H](c3ccccc31)[C@@H](CO)N2Cc1ccccc1Cl	-3	-2	-0.8
C[C@@H](NC(=O)C[C@@H]1C[C@@H]2c3cc(NS(=O)(=O)c4ccc(F)cc4)ccc3O[C@@H]2[C@H](CO)O1)c1ccccc1	0	-4	3.6
O=C(NC1CCCC1)[C@H]1[C@H](CO)[C@H]2Cn3c(ccc(-c4ccncc4)c3=O)[C@H]2N1CC1CC1	5	12	-6.3
Cc1ccccc1S(=O)(=O)N(C)C[C@H]1OCc2cnnn2CCCC(=O)N([C@H](C)CO)C[C@@H]1C	-1	-5	4.0
COc1ccc(S(=O)(=O)Nc2cccc3c2O[C@H](CN(C)Cc2ccc(C(F)(F)F)cc2)[C@H](C)CN([C@@H](C)CO)C3=O)cc1	0	-4	3.7
Cn1cnc(S(=O)(=O)N2C[C@@H](O)COC[C@H]3O[C@H](CC(=O)NCc4cccc(F)c4)CC[C@@H]32)c1	12	1	11
CCCC#Cc1ccc([C@@H]2[C@H](CO)N3C(=O)CN(C(=O)c4ccncc4)C[C@@H]23)cc1	18	10	7.5
C[C@@H]1CN([C@@H](C)CO)C(=O)c2c(c3ccccc3n2C)-c2ccccc2CO[C@H]1CN(C)S(=O)(=O)c1ccc(C#N)cc1	?	·	·
C[C@H](CO)N1C[C@H](C)[C@H](CN(C)S(C)(=O)=O)OCc2ccccc2-c2c(n(C)c3ccccc23)C1=O	1	5	-4.2
COCC(=O)N1CC2(C1)CN(C(=O)Nc1ccccc1F)[C@@H](CO)c1[nH]c3cc(OC)ccc3c12	11	15	-3.5
Cn1cnc(S(=O)(=O)N2CC[C@@H]3[C@@H](CO)Nc4ccc(C#Cc5ccccc5F)cc4[C@@H]32)c1	20	11	8.9
O=C(C[C@@H]1CC[C@@H]2[C@H](COC[C@H](O)CN2S(=O)(=O)c2ccc(F)cc2)O1)NCC1CC1	10	9	1.8
CN(C)C(=O)c1cccc(-c2ccc3c(c2)[C@@H]2[C@@H](CCN2C(=O)Nc2ccc(F)cc2)[C@H](CO)N3C)c1	3	0	3.8
CC(C)NC(=O)N1C[C@@H]2[C@H](c3ccccc31)[C@@H](CO)N2C(=O)Nc1ccccc1	1	0	1.9
O=C(Nc1ccccc1)N1CCCCN2[C@H](CO)[C@H](c3ccc(Br)cc3)[C@H]2C1	2	10	-7.6
O=C(Nc1cccc(Cl)c1)N1C[C@H]2[C@@H](c3ccccc31)[C@@H](CO)N2Cc1ccccc1Cl	-7	-3	-4.1
CC(C)C#Cc1ccc([C@@H]2[C@@H](CO)N3C(=O)CN(C(=O)NC4CCCC4)C[C@H]23)cc1	4	-3	7.1
CS(=O)(=O)Nc1ccc2c(c1)[C@H]1C[C@H](CC(=O)NCc3ccncc3)O[C@H](CO)[C@H]1O2	7	0	7.5
CO[C@H]1CN(C)C(=O)c2cc(NS(=O)(=O)c3cn(C)cn3)ccc2OC[C@H](C)N(CC2CC2)C[C@@H]1C	4	3	1.0
C[C@H]1CN([C@@H](C)CO)C(=O)Cc2cc(NS(=O)(=O)c3cccs3)ccc2O[C@H]1CN(C)Cc1ccc(-c2ccccc2)cc1	-1	-1	-0.8
CCCN1C[C@H](C)[C@H](OC)CN(C)C(=O)c2cc(NS(=O)(=O)c3ccccc3)ccc2OC[C@@H]1C	-3	-7	3.9
COc1ccc(NC(=O)N(C)C[C@H]2OCc3cn(nn3)CCCC(=O)N([C@@H](C)CO)C[C@H]2C)cc1	0	-2	2.4
New compounds follow
SMILES	DUX4 txn inh	DUX4 txn inh difference	DUX4 txn inh control
C[C@@H]1CCCCO[C@H](CN(C)CC2CCCCC2)[C@H](C)CN([C@@H](C)CO)C(=O)c2cc(NC(=O)Nc3ccc(C(F)(F)F)cc3)ccc2O1	-3	-7	3.8
CC(=O)Nc1ccc2c(c1)C(=O)N(C)[C@@H]1CC[C@H](CC(=O)NCCCN3CCOCC3)O[C@@H]1CO2	5	2	3.3
CN(C)CC(=O)Nc1ccc2c(c1)[C@@H]1C[C@@H](CC(=O)NCc3ccc(-c4ccccc4)cc3)O[C@@H](CO)[C@@H]1O2	?	·	·
O=C(Cc1ccccc1)N1C[C@H]2[C@@H](c3ccccc31)[C@H](CO)N2S(=O)(=O)c1ccccc1	4	-9	13
O=C(NC[C@@H]1[C@@H](c2ccccc2)[C@@H](CO)N1Cc1ccccn1)C1CCCC1	-8	-1	-6.8
Cc1ccc(S(=O)(=O)N[C@@H]2C=C[C@H](CC(=O)NCc3ccc(Cl)c(Cl)c3)O[C@@H]2CO)cc1	7	8	-0.1
COc1ccc2c3c([nH]c2c1)[C@H](CO)N(Cc1cccc(F)c1)CC31CN(C(C)=O)C1	?	·	·
COc1ccc([C@H]2CC=CC[C@@H](C)Oc3ccccc3C(=O)N(C)[C@H](Cc3ccccc3)C(=O)N2)c(OC)c1 (mixture of isomers)	6	7	-1.3
CCCN(C)C[C@H]1OCCCC[C@H](C)Oc2ccc(NS(=O)(=O)c3ccc(C)cc3)cc2C(=O)N([C@@H](C)CO)C[C@H]1C	0	3	-2.4
COc1ccc(C#Cc2ccc3c(c2)O[C@H](CN(C)C(=O)NC2CCCCC2)[C@@H](C)CN([C@H](C)CO)S3(=O)=O)cc1	5	3	2.1
C[C@H]1CN([C@@H](C)CO)C(=O)CCCn2cc(nn2)CO[C@@H]1CN(C)S(=O)(=O)c1cccc(C#N)c1	8	7	0.5
C[C@H](CO)N1C[C@H](C)[C@H](CN(C)S(=O)(=O)c2ccccc2)Oc2ccc(NC(=O)C3CC3)cc2C1=O	1	-2	2.8
CCC(=O)N1[C@@H](C#N)[C@H](c2ccccc2-c2ccccc2)[C@@H]1CO	23	11	12
CO[C@H](CN(C)C(=O)c1ccccc1F)[C@H](C)CN([C@H](C)CO)S(=O)(=O)c1ccc(F)cc1	0	11	-11
C[C@@H]1CN([C@@H](C)CO)C(=O)c2cccc(NS(=O)(=O)c3ccc(F)cc3)c2O[C@@H]1CN(C)S(=O)(=O)c1cccs1	-4	-2	-1.1
Cc1nn(C)cc1NC(=O)C[C@@H]1CC[C@H]2[C@H](COc3ccc(NC(=O)c4cccc(F)c4)cc3C(=O)N2C)O1	0	-3	2.1
COCCNC(=O)C[C@H]1C[C@H]2c3cc(NC(=O)Nc4ccc(OC)cc4)ccc3O[C@H]2[C@H](CO)O1	0	-4	3.3

Profiles, looked up by structure. Screens in order: DUX4 txn inh, DUX4 txn inh difference, DUX4 txn inh control
Record of `O=C(Cc1ccccc1)N1C[C@H]2[C@@H](c3ccccc31)[C@H](CO)N2S(=O)(=O)c1ccccc1` : 4, -9, 13
Record of `C[C@H](CO)N1C[C@H](C)[C@H](CN(C)S(=O)(=O)c2ccccc2)Oc2ccc(NC(=O)C3CC3)cc2C1=O` : 1, -2, 2.8
Record of `COc1ccc2c3c([nH]c2c1)[C@H](CO)N(Cc1cccc(F)c1)CC31CN(C(C)=O)C1` : ?, ·, ·
Record of `COc1ccc(C#Cc2ccc3c(c2)O[C@H](CN(C)C(=O)NC2CCCCC2)[C@@H](C)CN([C@H](C)CO)S3(=O)=O)cc1` : 5, 3, 2.1
Record of `CC(=O)Nc1ccc2c(c1)C(=O)N(C)[C@@H]1CC[C@H](CC(=O)NCCCN3CCOCC3)O[C@@H]1CO2` : 5, 2, 3.3

Random excerpt: 4 compounds from above.
SMILES	DUX4 txn inh	DUX4 txn inh difference	DUX4 txn inh control
O=C(Nc1ccccc1)N1CCCCN2[C@H](CO)[C@H](c3ccc(Br)cc3)[C@H]2C1	2	10	-7.6
C[C@H](CO)N1C[C@H](C)[C@H](CN(C)S(C)(=O)=O)OCc2ccccc2-c2c(n(C)c3ccccc23)C1=O	1	5	-4.2
CCC(=O)N1[C@@H](C#N)[C@H](c2ccccc2-c2ccccc2)[C@@H]1CO	23	11	12
C[C@H]1CCCCO[C@@H](CN(C)S(=O)(=O)c2cccs2)[C@@H](C)CN([C@@H](C)CO)C(=O)c2cc(N(C)C)ccc2O1	-4	-1	-2.2

This is a subset; the hit share may differ from the screen's.
